Screens (PubChem BioAssay)
Autofluor counter: compound fluorescence in toxin protease inhibitor counterscreen; 3.1% of 360,000 active; AID 624483; compound autofluorescence counterscreen, microsphere flow cytometry; stronger effect = higher value; fluorescence intensity (no concentration beside the values);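 active means at least 3 SD above the mean of all compounds, about 16000 in these data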;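 further: 100 nL of 1 mM stock went into each well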
Starred values were filed as active, the others as inactive. This is a subset. The share of hits here may be higher or lower than overall.

SMILES | Autofluor counter
CCCCn1nnnc1C1(C)CCC(=O)N1CCc1ccc(O)cc1 (stereo unspecified) | 4617
CCCS(=O)(=O)NC(=O)C1(C)CCN1C(=O)Cc1ccc(-c2ccccc2)cc1 (stereo unspecified) | 3624
COc1cc(S(=O)(=O)N2CCN(C(=O)c3cccs3)CC2)ccc1NC(C)=O | 3636
Cc1ccc(S(=O)(=O)N2[C@@H](c3ccc(Cl)cc3)C(C(=O)OC(C)(C)C)=CC[C@H]2c2ccc(Cl)c(Cl)c2)cc1 | 5921
CC1CCN(C(=O)C2CCC(CNS(=O)(=O)c3ccc4c(c3)C(C)(C)C(=O)N4C)CC2)CC1 (stereo unspecified) | 5662
COc1ccc(NC(=O)N(C)[C@H]2C[C@H]3c4[nH]c5ccc(-c6cccc(C)c6)cc5c4CCN3C[C@H]2[C@H](C)O)cc1 | 3200
CC(=O)N1Cc2cc(C(=O)NCC(F)(F)F)nc(-c3cccc(-c4cc5ccccc5o4)c3)c2[C@@H]1CCO | 6971
Cc1c(C(=O)NCc2ccc3c(c2)OCCO3)sc(=O)n1Cc1ccccc1C(F)(F)F | 5650
CCNC(=O)N1C[C@H]2CON(C)[C@H]2C[C@H]1c1ccccc1Br | 2943
CC1(C(=O)NS(=O)(=O)C2CC2)CCCN(C(=O)COc2ccc(Cl)cc2Cl)C1 (stereo unspecified) | 3855
C[C@@H]1CN([C@H](C)CO)C(=O)c2c(c3ccccc3n2C)-c2ccccc2CO[C@H]1CN(C)C(=O)CCC(F)(F)F | 3743
COCCNc1nc(-c2ccc(OC)cc2C)c2sc(-c3ccccc3)cc2n1 | 3986
O=C(NCC1CC1)c1ccc(-n2ccnc2)c2ccoc12 | 3630
COc1ccc(F)cc1-c1cc(NC(C)=O)c2ncc(-c3cc(OC)c(OC)c(OC)c3)n2c1 | 4028
CC(C)NC(=O)C1(C)Cc2c(-c3ccc(N(C)C)cc3)ccnc2O1 (stereo unspecified) | 4080
O=S1(=O)CC(N2CCCCC2)CN1Cc1cn(Cc2cccc(C(F)(F)F)c2)nn1 (stereo unspecified) | 6347
COc1ccc([N+](=O)[O-])cc1NCc1c(F)cccc1F | 3428
NC(=O)c1ccc(NC(=O)COC(=O)CCC2CCCC2)cc1 | 3929
COc1ccc(C(=O)N2CCC2(C)C(=O)O)cc1C(F)(F)F (stereo unspecified) | 2791
CCCCN1C(=O)C(CC(=O)NC2CC2)CC(C(=O)N2CCOCC2)=C1C (stereo unspecified) | 3745
COCOc1cccc(CN2CCC(C)(Oc3cccc(OC)c3)C2)c1 (stereo unspecified) | 4056
CC(C)n1c(=O)c2ccccc2n1Cc1cn(Cc2cccs2)nn1 | 4242
COc1ccc(NC(=O)C[C@H]2C(=O)N(c3ccc(Br)cc3)C[C@@H]2c2ccc(OC)cc2)cc1 | 3888
CSCCC(c1nnnn1-c1c(C)cccc1C)N1CCN(C/C=C/c2ccccc2)CC1 (stereo unspecified) | 4827
C[C@@H](CO)NC(=O)c1[nH]cnc1C(=O)Nc1ccc(CNC(=O)OC(C)(C)C)cc1 | 3670
Next structures.
SMILES | Autofluor counter
COc1ccc(CCn2c(C)cc(C(=O)COC(=O)c3ccc(O)cc3O)c2C)cc1 | 3889
O=C(CSc1nc2ccccc2c(=O)n1-c1ccc(F)c(Cl)c1)Nc1ccc2c(c1)CCC2 | 2985
COc1ccc(-c2csc(C(O)(c3ccccc3)C(F)(F)F)n2)cc1 (stereo unspecified) | 3861
CC1(c2nnnn2Cc2ccccc2)CCC(=O)N1Cc1ccco1 (stereo unspecified) | 5817
O=C1C(c2ccccc2)=NCCN1C(c1ccc(F)cc1)c1nc2ccccc2[nH]1 (stereo unspecified) | 5859
Cc1ccc(F)c(S(=O)(=O)NC(=O)C2(C)CCN2C(=O)c2sccc2C)c1 (stereo unspecified) | 3876
Cc1c(C(=O)NCc2cccc(Cl)c2)sc(=O)n1Cc1ccc(F)cc1 | 5381
Nc1ccc(S(=O)(=O)Nc2nccc(/C=C/c3cccc([N+](=O)[O-])c3)n2)cc1 | 3481
COC(=O)[C@]12CCCCC=C1N(CCC1=CCCCC1)C(=O)[C@H](CC(=O)NCc1ccc(OC)c(OC)c1)C2 | 6136
Nc1ncnc2c1ncn2[C@@H]1O[C@H](C(=O)N2CCCN(Cc3cccs3)CC2)[C@@H](O)[C@H]1O | 4214
OC(c1cccc(F)c1)c1ncc(-c2ccc3ccccc3c2)[nH]1 (stereo unspecified) | 3841
CCNC(=O)C1(C)CCCN(Cc2csc3ccccc23)C1 (stereo unspecified) | 3626
OC1CCC2CN3CCc4c([nH]c5ccccc45)C3CC2C1 (stereo unspecified) | 5044
CCCS(=O)(=O)NC(=O)C1(C)CCN(C(=O)c2sccc2C)C1 (stereo unspecified) | 3569
CC1C(=O)N(Cc2cn(CC3CCCCC3)nn2)CCS(=O)(=O)N1Cc1ccc(-c2ccc(Cl)cc2)cc1 (stereo unspecified) | 3071
Cc1cc(F)cc(-c2cc(C(=O)NCc3ccccc3)[nH]n2)c1 | 3751
CCCNC(=O)N(C)C[C@H]1Oc2ncc(Br)cc2C(=O)N([C@H](C)CO)C[C@H]1C | 3605
COc1ccc(S(=O)(=O)N2CCOC2CNC(=O)C(=O)NCCCN2CCCC2=O)cc1OC (stereo unspecified) | 2711
C[C@H]1CN([C@@H](C)CO)C(=O)c2cc(-c3cccc(F)c3)cnc2O[C@H]1CN(C)C(=O)c1cnccn1 | 3476
CCCC(=O)N1CCCC1(C)C(=O)Nc1cc(OC)c(OC)c(OC)c1 (stereo unspecified) | 3964
Nc1nc2ccccc2cc1C(=O)NCCCCc1ccccc1 | 6281
N#CC1=C2CCCCC2(O)NC1=O (stereo unspecified) | 3848
COc1cccc(C(O)c2nc(-c3cccc(F)c3)cs2)c1 (stereo unspecified) | 3890
CC1(C(=O)Nc2ccc(F)c(Cl)c2)Cc2c(-c3cccc(C(F)(F)F)c3)ccnc2O1 (stereo unspecified) | 3411
COc1ccc(-c2ccc(C(=O)NC3CCCCC3)c3occc23)c(C)c1 | 3948

By substructure: those above with a furan ring, fused or not
SMILES | Autofluor counter
CC(=O)N1Cc2cc(C(=O)NCC(F)(F)F)nc(-c3cccc(-c4cc5ccccc5o4)c3)c2[C@@H]1CCO | 6971
O=C(NCC1CC1)c1ccc(-n2ccnc2)c2ccoc12 | 3630
CC1(c2nnnn2Cc2ccccc2)CCC(=O)N1Cc1ccco1 (stereo unspecified) | 5817
COc1ccc(-c2ccc(C(=O)NC3CCCCC3)c3occc23)c(C)c1 | 3948

The listing continues:
SMILES | Autofluor counter
O=C1c2ccccc2C(=Cc2cccnc2)c2ccccc21 | 3814
CC1(C(=O)NCC(F)(F)F)CCN1C(=O)C1(c2ccccc2)CC1 (stereo unspecified) | 3755
COc1cc2oc(=O)cc(CN3CCN(c4ccccc4OC)CC3)c2cc1Cl | 6161
COc1ccc2c(C)cc(=O)sc2c1 | 3599
CCCc1c(C(=O)N/N=C/C=C/c2ccccc2)nnn1-c1nonc1N | 3074
C[C@@H]1CN([C@@H](C)CO)C(=O)CCCn2cc(nn2)CO[C@H]1CN(C)S(=O)(=O)c1ccc2c(c1)OCCCO2 | 2865
CC(C)(OOC1(c2ccccc2)NC(=O)c2ccccc21)c1ccccc1 (stereo unspecified) | 6322
O=C(NC1CC1)c1cccc2c1C(=O)c1ccc(N3CCC(N4CCCCC4)CC3)cc1S2(=O)=O | 4273
O=C(NCCN1CCC(n2c(=O)[nH]c3ccccc32)CC1)c1ccccc1Cl | 6055
COc1ccc(C(=O)NCC(c2ccco2)N2CCOCC2)cc1 (stereo unspecified) | 4283
COC(=O)[C@]12CCCCC=C1N(Cc1cccc3ccccc13)C(=O)[C@H](CC(=O)NCCCN1CCCC1=O)C2 | 6147
COc1ccc(CNC(=O)c2sc(=O)n(Cc3ccccc3OC)c2C)cc1 | 3972
COc1ccc(C#Cc2ccc3c(c2)O[C@H](CN(C)C(C)=O)[C@H](C)CN([C@@H](C)CO)S3(=O)=O)cc1 | 3458
Cc1cc2nc(-c3ccc(Cl)cc3)c(Cc3ccsc3)n2c(C)c1Br | 4655
Cc1cccc(C(=O)OCC(=O)NCc2ccc(Cl)cc2)c1 | 2988
COc1ccc(S(=O)(=O)N2C[C@H]3CON(C)[C@H]3C[C@H]2c2ccc(-c3cc4ccccc4o3)cc2)cc1 | 3728
O=S1(=O)N[C@H](Cc2ccccc2)COc2cc(N3CCSCC3)ccc21 | 5564
CCOC(=O)[C@]12CCCC=C1N(Cc1cccc3ccccc13)C(=O)[C@H](CC(=O)NCc1ccc(C)o1)C2 | 4381
CCC(CC)C(=O)N(C)c1c(C)nc2c(OCC(=O)N(C)C)cccn12 | 3477
COc1ccc(-c2csc(C(NC(C)=O)c3cccc(OC)c3)n2)cc1 (stereo unspecified) | 3116
COc1ccc(OC(=O)N(C)C[C@H]2OCc3cnnn3CCCC(=O)N([C@@H](C)CO)C[C@H]2C)cc1 | 3567
O=c1n(Cc2ccccc2)c(O)c2n1Cc1ccccc1N=C2c1ccccc1 | 5856
CCCCNC(=O)C[C@@H]1C[C@@]2(C(=O)OCC)CCC=C2N(CCC2=CCCCC2)C1=O | 4508
CCCN1C(=O)C(=O)N(CC(=O)N2c3ccccc3NC(=O)CC2C)C1=O (stereo unspecified) | 3242
COc1ccccc1C(=O)NNC(=O)c1ccc(O)cc1 | 3606
New compounds follow.
SMILES | Autofluor counter
OC(c1cccc(Cl)c1)c1nc(-c2cnc3ccccc3c2)cs1 (stereo unspecified) | 3157
CC1(C(=O)NC2CCCCC2)CCC(=O)N1CC(F)(F)F (stereo unspecified) | 5763
COC(=O)c1ccc2nc(C3CCCCC3)c(Cc3cccc(F)c3)n2c1 | 4851
CCCCN1C(=O)C(CC(=O)NCc2ccco2)CC(C(=O)N(C(C)C)C(C)C)=C1C (stereo unspecified) | 5767
CC1=C(C(=O)N(C(C)C)C(C)C)CC(CC(=O)NCC2CCCCC2)C(=O)N1Cc1ccccc1 (stereo unspecified) | 5494
O=C(NCc1ccc(F)cc1)c1cc(C2CCCN(C(=O)c3ccc4ccccc4c3)C2)on1 (stereo unspecified) | 3445
NC(Cc1ccccc1)c1csc(Nc2ccc(C(=O)NCCO)cc2)n1 (stereo unspecified) | 4108
O=C(c1ccc(F)cc1)N1CCN(S(=O)(=O)c2ccc3c(c2)OCCO3)CC1 | 2869
Cc1ccc(OCc2cc(C(=O)N(C)Cc3cnn(C)c3)no2)cc1C | 3780
Cc1ccc(-n2c(=O)c3c(c4cc(C)ccc4n3C)n(CC(=O)NCC3CCCO3)c2=O)cc1 (stereo unspecified) | 3113
C[C@H]1Cn2cnc(C(=O)N[C@@H](Cc3c[nH]c4ccccc34)C(=O)OC(C)(C)C)c2C(=O)N1 | 3859
CC1Cc2[nH]c(=S)[nH]c(=O)c2C(C)O1 (stereo unspecified) | 6306
Cc1cc(C(=O)N2CCC2(C)C(=O)NCc2cccc3ccccc23)nn1C (stereo unspecified) | 3671
C=C1C(=O)[C@]23C[C@H]1CCC2[C@]1(C)CCC[C@@](C)(C(=O)O)C1C[C@@H]3O (stereo partly specified) | 4405
C[C@@H]1CN([C@@H](C)CO)C(=O)CCCn2nncc2CO[C@@H]1CN(C)S(=O)(=O)c1ccccc1C#N | 3608
C[C@@H]1CN([C@@H](C)CO)C(=O)CCCn2nncc2CO[C@H]1CN(C)C(=O)CCC(F)(F)F | 3531
C[C@H](CO)N1C[C@H](C)[C@@H](CN(C)Cc2ccc(-c3ccccc3)cc2)Oc2ncc(C#C[C@@H](C)O)cc2C1=O | 3492
CCc1nc2ccc(C(=O)NCCOc3ccc(OC)cc3)cn2c1N(C)Cc1nccn1C | 3423
CCOC1=C2[C@@H](CN(S(=O)(=O)c3ccc(C)cc3)[C@H]2c2ccccc2Cl)[C@H]2C(=O)N(C(C)(C)C)C(=O)[C@H]2C1 | 4361
Clc1cccc(Cc2c(-c3cccc(Cl)c3)nc3ccc(Br)cn23)c1 | 9735
O=C(Nc1ccc2c(c1)CCO2)Nc1nnc([C@H]2C[C@H](O)[C@@H](CO)O2)s1 | 4104
NC(Cc1ccc(Cl)cc1)c1csc(Nc2cc(Oc3ccccc3)ncn2)n1 (stereo unspecified) | 4102
O=C1NC[C@H](CCCCN2C[C@H](Cc3ccc(O)cc3)N(CC3CCCCC3)C(=O)C2=O)N(CCc2ccc(O)cc2)C1=O | 5207
C[C@@H]1CN([C@H](C)CO)C(=O)CCCn2cc(nn2)CO[C@H]1CN(C)C(=O)Nc1cccc(C(F)(F)F)c1 | 3856
CC(C)=NNc1cnnc2ccc([N+](=O)[O-])cc12 | 5375
(more compounds)
SMILES | Autofluor counter
O=CN1CCN(C(=O)Cc2ccc(Cl)cc2)CC1 | 3420
CCc1ccc(OC2(C)CCN(Cc3ccccc3OC(F)F)C2)cc1 (stereo unspecified) | 4239
CC(C(=O)OCC(=O)Nc1ccccc1OC(F)F)N1C(=O)C2CC=CCC2C1=O (stereo unspecified) | 3613
Cc1cc2oc(=O)cc(CN(C)Cc3ccccc3)c2cc1Cl | 5997
CCOC(=O)[C@]12CCC=C1N(Cc1ccc3c(c1)OCO3)C(=O)[C@H](CC(=O)NCC13CC4CC(CC(C4)C1)C3)C2 | 4123
O=C(CC[C@H]1O[C@@H](n2ccc(=O)[nH]c2=O)[C@H](O)[C@@H]1O)NCc1cccc2ccccc12 | 5574

6 entries drawn at random from those above, as already listed:
SMILES | Autofluor counter
Cc1cc(F)cc(-c2cc(C(=O)NCc3ccccc3)[nH]n2)c1 | 3751
O=C1NC[C@H](CCCCN2C[C@H](Cc3ccc(O)cc3)N(CC3CCCCC3)C(=O)C2=O)N(CCc2ccc(O)cc2)C1=O | 5207
COc1ccc(-c2csc(C(NC(C)=O)c3cccc(OC)c3)n2)cc1 (stereo unspecified) | 3116
Cc1c(C(=O)NCc2ccc3c(c2)OCCO3)sc(=O)n1Cc1ccccc1C(F)(F)F | 5650
C[C@H](CO)N1C[C@H](C)[C@@H](CN(C)Cc2ccc(-c3ccccc3)cc2)Oc2ncc(C#C[C@@H](C)O)cc2C1=O | 3492
COc1ccc2c(C)cc(=O)sc2c1 | 3599

Single values from the list:
Value of O=C(NCC1CC1)c1ccc(-n2ccnc2)c2ccoc12 in Autofluor counter: 3630
Value of O=C(c1ccc(F)cc1)N1CCN(S(=O)(=O)c2ccc3c(c2)OCCO3)CC1 in Autofluor counter: 2869
Value of COc1ccc2c(C)cc(=O)sc2c1 in Autofluor counter: 3599
Value of CCc1nc2ccc(C(=O)NCCOc3ccc(OC)cc3)cn2c1N(C)Cc1nccn1C in Autofluor counter: 3423
Value of CC(C)n1c(=O)c2ccccc2n1Cc1cn(Cc2cccs2)nn1 in Autofluor counter: 4242
